Screening data as filed in PubChem BioAssay.
Resorufin autofl = compound fluoresces in the resorufin spectral region | Compound fluorescence, resorufin region 547/598 nm, buffer; active compounds read high | max dye-equivalent concentration, M | actives 0.04% (n = 59,000) | AID 588; active = above 10 nM dye equivalent; inconclusive = 1 to 10 nM; inactive = 1 nM or less; a few of its hits are not listed in these tables; note: highest value over a series up to 38 µM
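Read-out: intrinsic compound fluorescence at ex 547/em 598 nm after 15 min at RT in pH 8.0 Tris (100 mM). Values expressed as resorufin-equivalent concentration from per-plate standard series.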
TSHR ag = agonists of human thyroid stimulating hormone receptor; actives 0.48% (n = 73,000); Potency, µM (highest dose often 57.1 µM), for inactives: at the highest dose activation, hits mostly activators; AID 926; HEK293-CNG-TSHR cells (CNG channel as cAMP sensor), membrane potential dye, cAMP; active = well fitted activation curve of enough size with the parental cells flat; inconclusive = any curve in the parental cells; inactive = parental cells flat and receptor cells flat or falling; note: potency is the fitted concentration of half-maximal effect; % of control where 0% means no effect; weak receptor curves with flat parental cells got no call and are not listed
Target sequence (P16473 whole entry, looked up): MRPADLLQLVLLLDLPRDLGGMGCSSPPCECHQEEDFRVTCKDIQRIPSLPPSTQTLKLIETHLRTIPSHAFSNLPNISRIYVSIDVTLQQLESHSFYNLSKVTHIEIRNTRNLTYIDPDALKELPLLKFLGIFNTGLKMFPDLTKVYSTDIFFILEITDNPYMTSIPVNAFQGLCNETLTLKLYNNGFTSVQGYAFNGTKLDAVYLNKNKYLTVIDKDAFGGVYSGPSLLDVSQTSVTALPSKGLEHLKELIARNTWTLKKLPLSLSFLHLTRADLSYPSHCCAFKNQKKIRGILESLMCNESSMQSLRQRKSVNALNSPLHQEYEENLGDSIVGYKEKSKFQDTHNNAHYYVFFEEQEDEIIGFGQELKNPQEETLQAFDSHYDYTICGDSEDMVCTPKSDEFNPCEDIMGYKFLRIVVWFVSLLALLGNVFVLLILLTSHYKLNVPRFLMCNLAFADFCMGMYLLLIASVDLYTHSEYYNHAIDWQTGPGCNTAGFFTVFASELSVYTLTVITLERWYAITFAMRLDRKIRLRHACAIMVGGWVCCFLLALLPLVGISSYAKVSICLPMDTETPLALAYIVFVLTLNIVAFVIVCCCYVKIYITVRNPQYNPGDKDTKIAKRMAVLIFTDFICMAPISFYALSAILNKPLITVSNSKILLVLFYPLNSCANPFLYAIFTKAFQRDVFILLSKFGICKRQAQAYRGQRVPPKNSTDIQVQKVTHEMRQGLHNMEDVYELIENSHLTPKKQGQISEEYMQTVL
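HEK 293 cells stably expressing TSHR and a modified CNG channel, with CNG-only parental cells as counterscreen, were preloaded 60 min at room temperature with membrane potential dye containing 100 uM RO 20-1724. Compound exposure was 30 min, and depolarization was read as fluorescence at 590 nm.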
AID923 = qHTS Assay for Allosteric/Competitive Inhibitors of Caspase-1: Spectroscopic Profiling in AFC Spectral Region; compound fluorescence, AFC spectral region (405/520 nm); almost no hit is shown here; Potency, µM (doses to about 57.5 µM), for inactives: top-dose fluorescence increase, hits mostly activators; actives 1.1% (n = 75,000); active = well fitted activation curve with a large enough effect; inconclusive = small, poorly fitted or top-dose-only effect;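 note: potency is the fitted concentration of half-maximal effect; 0% is about no effect; scaled to a free AFC standard on each plate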
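Baseline compound fluorescence (AFC region, 405 nm ex/520 nm em) taken from the intercept of kinetic reads with 50 nM caspase-1 and 5 uM Ac-WEHD-AFC; normalized to an on-plate AFC standard curve; compounds titrated up to 57 uM.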
A488 autofl = compound autofluorescence in A488 spectral region. max dye equivalency, M. compound autofluorescence, A488 spectral region, dye equivalency; active compounds read high. actives 0.1% (n = 59,000); active = above 10 nM dye equivalent; inconclusive = 1 to 10 nM; inactive = 1 nM or less; about half of its hits are not listed in these tables;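 note: highest value over a series up to 38 µM; compound alone in buffer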
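Read-out: relative fluorescence at 480/540 nm, expressed as Alexa 488 dye-equivalent concentration from a six-point A488 standard included per plate. Conditions: 100 mM Tris, pH 8.0; 15 min incubation, room temperature.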
A647 fluor = compound fluoresces in the A647 spectral region | 59,000 tested, under 10 active | max dye-equivalent concentration, M | Compound fluorescence, A647 channel (570/671 nm), Tris buffer; active means above 1 µM dye equivalent; inconclusive means 0.1 to 1 µM; inactive means 0.1 µM or less;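 note: values scaled relative to a standard on each plate; highest value over a series up to 38 µM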
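Buffer was dispensed, compounds and Alexa 647 standards were pin-transferred, and plates sat 15 min at room temperature. Intensity at 570/671 nm was then converted to dye-equivalent concentration using the plate's A647 standard curve.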
Active calls of the source: *; i = inactive; ? = inconclusive; . = no result given; & = joins results of further samples; [ ] = dose if it differs, or a comment.

SMILES	Resorufin autofl	TSHR ag	AID923	A488 autofl	A647 fluor
COc1cccc(NC(=O)CNC(C)CCC(C)C)c1 (centres undefined)	i	13%	0.4%	i	4.8e-08
CC(=O)OC[C@@H]1O[C@@H](O/N=C2/C[C@@H](O)[C@@H](O)[C@@H]3[C@@H]4C(=O)N([C@@H](C)c5ccccc5)C(=O)[C@H]4CC[C@@H]23)[C@H](OC(C)=O)[C@H](OC(C)=O)[C@@H]1OC(C)=O	.	22%[11.4 µM]	-1.5%[11.5 µM]	.	.
CCOC(=O)c1ccc2c(c1)nc(C1CCN(S(=O)(=O)c3cccs3)CC1)n2CC	i	.	-5.1%	i	1e-09
O=C(c1cccc(S(=O)(=O)N2CCOCC2)c1)N1CCCCCC1	i	26%	-0.9%	i	2.5e-08
Cn1nnnc1SCC(=O)N1CCN(c2ccc(Cl)cc2)CC1	i	0%	-2.2%	i	1.4e-08
Cc1ccc(C)n1-c1ccc2c(c1)COC2=O	i	2%	0.6%	i	1.9e-08
CCOC(=O)c1c(C)[nH]c(C(=O)CN2C(=O)NC(CC)(c3ccccc3)C2=O)c1C (centres undefined)	i	-5%	-2.2%	i	1e-09
O=c1n(Cc2cc3c(cc2Cl)OCO3)c(=O)n2n1CC[C@H]1/C(=N\OC[C@@H](O)COCc3ccco3)[C@H]3O[C@@H]3[C@@H](O)[C@@H]12	.	3%[11.4 µM]	2.6%[11.5 µM]	.	.
N#CC1(c2ccccc2)CCC(=NO)CC1 (centres undefined)	i	.	.	i	8.1e-08
COc1ccc(OC)c(N2C(=O)[C@@H]3C(c4ccccc4Cl)=NO[C@@H]3C2=O)c1	i	.	-2.3%	i	1e-09
COc1cccc(C2=NOC(C(=O)N3CCOCC3)C2)c1 (centres undefined)	i	5%	-0.7%	i	3.7e-09
Cc1c(NC(=O)c2cccc(S(=O)(=O)N3CCOCC3)c2)c(=O)n(-c2ccccc2)n1C	i	10%	0.3%	i	1e-09
Cc1oc2c(c(=O)c1C)C(=O)CC(c1ccccc1)C2 (centres undefined)	.	4%	-0.3%	.	.
CC(=O)NCN1CCN(CNC(C)=O)CC1	.	-1%	2.2%	.	.
O=C(NCCCN1CCN(c2ccccc2F)CC1)C1CCN(S(=O)(=O)N2CCOCC2)CC1	i	?	9.2%	i	2.5e-08
CC(C)Cc1nc2oc3c(=O)[nH]cnc3c2c2c1CCC2	i	-2%	-0.5%	i	4.6e-08
CC(C)Cn1c(NCCN(C)C)nc2c1c(=O)[nH]c(=O)n2C	i	2%	0.8%	i	3.1e-08
CCC(c1nnc(SCC(=O)Nc2nnc(-c3ccccc3)o2)o1)N(C)C (centres undefined)	i	-4%	-0.4%	i	1e-09
CCc1n[nH]c2c1/C(=N\O)CC(c1ccccc1)C2 (centres undefined)	i	-4%	-1.1%	i	4.3e-09
O=C(O)CCC(=O)NCC1OCCc2ccccc21 (centres undefined)	i	1%	-0.3%	i	1.3e-08

Three of the entries above in order of their number in A647 fluor, low to high:
SMILES,A647 fluor
CCC(c1nnc(SCC(=O)Nc2nnc(-c3ccccc3)o2)o1)N(C)C (centres undefined),1e-09
COc1cccc(C2=NOC(C(=O)N3CCOCC3)C2)c1 (centres undefined),3.7e-09
COc1cccc(NC(=O)CNC(C)CCC(C)C)c1 (centres undefined),4.8e-08

Remaining list, next part:
SMILES	Resorufin autofl	TSHR ag	AID923	A488 autofl	A647 fluor
CC1CC2(CC(C)(C(=O)CSc3nc4ccccc4s3)OC2=O)C(=O)O1 (centres undefined)	i	1%	0.0%	i	1e-09
CC(C)(C)NC(=O)NC(=O)COC(=O)CNC(=O)c1cccc(F)c1	i	-1%	-1.6%	i	1e-09
CC(=O)c1cccc(NC(=O)CN(c2cccc(F)c2)S(C)(=O)=O)c1	i	2%	3.9%	i	8.9e-09
O=C(CCCN1C(=O)c2ccccc2C1=O)Nc1ccccn1	i	-1%	0.7%	i	2.4e-08
Cc1nn(C(=O)c2ccccc2)c2c1C(=O)CC(C)(C)C2	i	4%	-0.9%	i	8.2e-09
CN(C)Cc1ccccc1-c1ccc2ncnc(N(C)Cc3ccco3)c2c1	i	?	0.7%	i	2.5e-09
CN(C)c1oc(-c2ccccc2F)nc1C#N	.	8%	-0.7%	.	.
COC(=O)c1cc(-c2cccc(OC)c2)on1	i	18%	1.5%	i	2.7e-09
N#Cc1cnn(CC2CCCCC2)c1N	.	17%	1.6%	.	.
COc1ccc(CN2CCN(S(=O)(=O)c3ccc(F)cc3)CC2)cc1OC	i	12%	1.4%	i	1e-09
CCOC(=O)C1C(=O)CC(C)(O)C(C(=O)OCC)C1c1ccc(Br)o1 (centres undefined)	i	?	-1.4%	i	6.1e-09
COC(=O)c1ccc(CSc2ncnc3c2nnn3-c2ccc(F)cc2)o1	.	?	1.1%	.	.
Cc1nnc(SCC(N)=O)n1CC1CCCO1 (centres undefined)	i	-2%	-1.3%	i	1e-09
C[Si](C)(c1ccc(C(=O)O)cc1)c1ccc(C(=O)O)cc1	i	1%[11.4 µM]	-0.3%[11.5 µM]	i	1e-09
O=C(c1cccs1)N1CCN(S(=O)(=O)N2CCOCC2)CC1	i	3%	-0.1%	i	5.5e-09
Cc1ccc(-c2csc(NC(=O)c3ccno3)n2)cc1	i	1%	-1.0%	i	1e-09
O=C(Cn1cnc2c(cnn2-c2ccc(F)cc2)c1=O)NCc1ccco1	i	4%	0.6%	i	1e-09
Cn1cc(SCC(=O)NCc2ccc3c(c2)OCO3)c2ccccc21	.	-2%	4.0%	.	.
CCCCNC(=O)C(c1ccc(OCC(=O)OC)c(C(=O)OC)c1)N(CCc1ccccn1)C(=O)CCCCCN1C(=O)NC(c2ccc(-c3ccccc3)cc2)C(C(=O)OCc2ccccc2)=C1C (centres undefined)	.	-5%	-0.3%	.	.
Cc1c(C)c2c(c(C)c1O)CC[C@@](C)(C(=O)O)O2	i	?	-1.8%[25.7 µM]	i	4.7e-08

Compound profiles, as listed above. Values in the order: Resorufin autofl, TSHR ag, AID923, A488 autofl, A647 fluor
CC(=O)c1cccc(NC(=O)CN(c2cccc(F)c2)S(C)(=O)=O)c1 in the list: i, 2%, 3.9%, i, 8.9e-09
O=C(CCCN1C(=O)c2ccccc2C1=O)Nc1ccccn1 in the list: i, -1%, 0.7%, i, 2.4e-08
Cc1nn(C(=O)c2ccccc2)c2c1C(=O)CC(C)(C)C2 in the list: i, 4%, -0.9%, i, 8.2e-09
Cc1nnc(SCC(N)=O)n1CC1CCCO1 (centres undefined) in the list: i, -2%, -1.3%, i, 1e-09
Cc1c(C)c2c(c(C)c1O)CC[C@@](C)(C(=O)O)O2 in the list: i, ?, -1.8%[25.7 µM], i, 4.7e-08

Later entries.
SMILES	Resorufin autofl	TSHR ag	AID923	A488 autofl	A647 fluor
CC1(C)Nc2ccccc2N(CCC(=O)N2CCOCC2)C1=O	.	2%	-1.9%	.	.
CCCCOc1ccc(OCCCN2CCOCC2)cc1	i	12%[25.6 µM]	-2.0%	i	4.1e-08&2.1e-08
O=C(Nc1ccc(Cl)cn1)c1cccnc1	.	-4%	0.4%	.	.
O=C(c1cccs1)N1CCN(Cc2cccnc2)CC1	i	9%	0.0%	i	7.8e-09
COC(=O)c1ccccc1OCc1cccc(C)n1	i	.	.	i	1e-09
CS(=O)(=O)N(CC(=O)O)c1cccc(Cl)c1	i	-5%	1.8%	i	7.4e-09
Fc1ccc(C2=Nn3c(nnc3-c3n[nH]c4c3CCC4)SC2)cc1	i	?	-2.2%	i	2.7e-08
Cc1ccc(S(=O)(=O)N(CC(=O)N2CCOCC2)C2CCCCC2)cc1	.	13%	1.0%	.	.
CCCCc1c(C)nn(-c2nnc3c4ccccc4n(CC)c3n2)c1C	i	.	1.2%	i	1e-09
N#Cc1ccc(CN2CC[C@@]3(CCCN(C(=O)c4cccc(F)c4)C3)C2)cc1	i	16%	-3.8%	i	1e-09
COc1cccc(-c2cncnc2NCCc2c[nH]c3ccc(OC)cc23)c1	i	?	0.9%	i	4e-08
Cc1cc(C)c(S(=O)(=O)N(C)CC(N)=O)c(C)c1	i	1%	-0.2%	i	4.2e-08
COc1ccc(C(=O)OC(COc2ccccc2)Cn2ccnc2)cc1 (centres undefined)	.	23%	-0.6%	.	.
COc1cc(N[C@@H](C)CCCN)c2ncccc2c1	i	-20%[25.6 µM]	9.9%[25.7 µM]	i	1.5e-08
Cc1c(O)c(CN2CCCCC2)cc2c3c(c(=O)oc12)CCC3	i	.	.	i	1e-09
N[C@@H](Cc1ccccc1)c1nnc(SCc2ccccc2Cl)o1	i	9%	1.8%	i	1e-09
O=C(OCc1nc2ccccc2c(=O)[nH]1)c1cccs1	i	0%	3.1%	i	6.4e-09
CCCCCOC(=O)C(C)c1c(C)[nH]c(=S)[nH]c1=O (centres undefined)	i	.	.	i	1e-09
CCOCC(=O)Nc1nc2c(s1)C(=O)CC(C)(C)C2	.	?	0.2%	.	.
COc1ccccc1OCC(=O)Nc1ccc(O)cc1C(=O)O	i	18%	0.3%	i	1e-09
Cc1cc(S(=O)(=O)N2CCCC2)ccc1OCC(=O)N1CCOCC1	i	0%	1.6%	i	2.7e-09
CCOC(=O)/C(C#N)=C1/C=Nc2ccccc2N1	.	-4%	5.8%	.	.
CC(C)n1c(SCc2ccc(Cl)cc2)nc2c1c(=O)[nH]c(=O)n2C	i	?	0.4%	i	1e-09
CCOC(=O)C(NC(=O)CCC(=O)Nc1ccc(S(N)(=O)=O)cc1)C(O)c1ccccc1 (centres undefined)	.	3%[11.4 µM]	0.9%	.	.
CN1CCCC(OC(=O)c2cc(Br)ccc2Cl)C1 (centres undefined)	i	-5%	-0.4%	i	1.2e-08
CCOC(=O)C1CCN(C(=O)CSCc2nc(-c3ccc(OCC)cc3)oc2C)CC1	i	?	-0.5%	i	3.7e-08
CCOC(=O)c1sc(NC(=O)c2cc3c(C)nn(-c4ccccc4)c3s2)nc1C	i	19%	-1.0%	i	2.2e-08
CN1CC(=O)N(CC(=O)NCc2ccc(F)cc2)c2ccccc2C1=O	i	1%	-0.4%	i	8.7e-09
CCN(CCNC(=O)C1CC(=O)N(CCc2ccccc2)C1)c1ccccc1 (centres undefined)	i	-2%	-1.0%	i	1e-09
O=C1OCCC1Sc1nnc(-c2cccs2)n1Cc1ccccc1 (centres undefined)	i	5%	0.4%	i	1.1e-08
COc1cccc(NC(=O)c2ccco2)c1	.	-7%	1.7%	.	.
Cc1ccc(CCP(=O)(O)CN2CCCCC2)cn1	.	4%	-0.5%	.	.
O=C(COC(=O)c1ccc(Oc2ccccc2)cc1)Nc1nnc(-c2ccccc2)o1	i	?	-0.3%	i	1e-09
CC(=O)[C@@]1(O)CC[C@H]2[C@@H]3C[C@H](C)C4=CC(=O)CC[C@]4(C)[C@H]3CC[C@@]21C	i	.	.	i	1e-09
CCOC(=O)c1c(C)[nH]c(C(=O)COC(=O)CNC(=O)C2CCCCC2)c1C	i	2%	0.1%	i	3.5e-08
CCOC(=O)N1CCN(C(=O)C2CCCN(S(=O)(=O)c3cc(C)ccc3OC)C2)CC1 (centres undefined)	i	11%	1.4%	i	1e-09
CC(C)CCNC(=O)CCCOc1cc(=O)n(C)c2ccccc12	i	2%[11.4 µM]	0.5%	i	2e-08
CCC(C)(C(=O)NC1CCCCC1)N(C(=O)C1CCC(=O)N1)c1ccc(C)cc1 (centres undefined)	i	-3%	-0.2%	i	1e-09
CC1CCCCN1CCNC(=O)c1cc2c(-c3ccccc3F)nn(C)c2s1 (centres undefined)	.	16%	-0.8%	.	.
CCOC(=O)c1c(O)[nH]c(=O)c(CC)c1C	i	1%[11.4 µM]	5.0%[11.5 µM]	i	1.9e-08
CCSc1nc2c(c(=O)[nH]1)C(c1cccnc1)C(C(=O)OC)=C(C)N2 (centres undefined)	i	-4%	0.6%	i	1e-09
CCCNC(=O)CS(=O)Cc1nc(-c2ccccc2C)oc1C (centres undefined)	.	7%	-2.1%	.	.

A portion of the library, so the mix of outcomes need not match the whole.
